Bioassay records as filed in PubChem BioAssay.
Sa growth inh: S. aureus growth inhibition at 42 and 30 °C, primary screen, LtaS inhibitor project, RN4220, two temperatures | AID 720641, 2013 | OD600, 20 h, 42 °C; stronger effect = lower value | 0.53% of 170,000 active | relative growth, % (concentration not given with the values);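 active = growth at 42 °C up to 50% and 20 or more points under that at 30 °C, or under 10% at both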;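 also: 300 nL library stock went into each well; scaled to the means of positive and negative controls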
GIV Gai3 FP: inhibitors of GIV peptide binding to Galpha-i3, primary screen, biochemical, fluorescence polarization, FITC-GIV GBA peptide, rat Galphai3 | 90 min; stronger effect = lower value; scaled: aluminum fluoride 0%, vehicle 100% | 0.42% of 210,000 active | Guanine nucleotide-binding protein G(i) subunit alpha-3 (Rattus norvegicus), P08753 | percent of control (FP), % (concentration not given with the values);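 active = replicate mean at 85% of control or lower, very high polarization wells dropped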;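 also: wells of about 15 µL received 100 nL stock; the first replicate is given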
Target sequence (P08753 whole entry, looked up): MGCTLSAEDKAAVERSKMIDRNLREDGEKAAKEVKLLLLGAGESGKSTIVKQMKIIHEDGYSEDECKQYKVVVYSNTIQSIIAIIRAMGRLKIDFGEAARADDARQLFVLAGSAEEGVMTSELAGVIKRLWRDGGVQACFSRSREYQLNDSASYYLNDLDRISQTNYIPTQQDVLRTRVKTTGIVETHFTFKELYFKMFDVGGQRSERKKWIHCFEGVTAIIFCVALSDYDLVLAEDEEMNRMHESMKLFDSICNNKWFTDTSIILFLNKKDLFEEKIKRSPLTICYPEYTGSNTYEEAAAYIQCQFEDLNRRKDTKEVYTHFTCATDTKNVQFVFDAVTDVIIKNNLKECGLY
HCMV NEC inh: inhibitors of HCMV UL50-UL53 interaction, biochemical, HTRF; HCMV UL50-UL53 nuclear egress complex (human cytomegalovirus); normalized percent inhibition; inhibition, % (concentration not given with the values); 0.15% of 190,000 active; AID 1918969, 2023;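 active = both replicates at 50% or more, plus weaker picks with an unusually low signal ratio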;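 also: stock transfer was 100 nL into about 20 µL; 0% = negative control wells and 100% = wells with untagged competitor protein; inactives centre near -12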
Sa growth inh second temp: recorded beside Sa growth inh, whose call it bears; relative growth, %; measured here: growth at 30 °C;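 optical density after 20 h as mean of two plates; 100% = untreated growth and lower means inhibition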
Numbers without * were called inactive; · = no result given; & = joins results of further samples.

SMILES	Sa growth inh	Sa growth inh second temp	GIV Gai3 FP	HCMV NEC inh
CCCOc1ccc(C2C3CN(CC)CC=C3C(C#N)=C(N)C2(C#N)C#N)cc1OC (stereo not drawn)	89	65	114	-24
Cc1ccc2occ(CC(=O)N(C)Cc3ccccc3)c2c1	88	86	104	0
Cn1c(-c2ccccc2)nc2cc(N)ccc21	105	63	100	5
CN1CCN(C(=O)c2ccc3c(=O)n(CCC4=CCCCC4)c(=O)[nH]c3c2)CC1	96	77	102	5
C(=C\c1ccccc1)/C=N/[n+]1ccccc1	103	82	·	1
Cc1noc(NS(=O)(=O)c2ccc(NC3OC(=O)c4ccccc43)cc2)c1C (stereo not drawn)	13	21	101	·
O=C(Nc1cccc(Cl)c1)C12CC3CC(CC(C3)C1)C2	94	83	99	-13
Cc1ccc(O)c(C(=O)c2cnn3c(=S)[nH]nc3c2)c1	91	80	·	-5
CCn1c(CNC(=O)C(OC)c2ccccc2)nnc1SC (stereo not drawn)	103	76	102	-1
CCOc1ccc(-n2c(SCC(=O)NC(=O)CN3CCCC3=O)nc3ccccc32)cc1	95	85	·	-26
COc1cccc(N2CCN(C(=O)CCS(=O)(=O)c3ccc4c(c3)CC(=O)N4C)CC2)c1	87	90	99&105	6
Cc1ccc(F)c(NC(=O)C(F)(F)C(F)F)c1	78	102	103	-14
CCC(C)NC(=O)c1cc(-c2cccc(OC)c2)on1 (stereo not drawn)	102	87	107	4
NS(=O)(=O)c1cccc2cc(C(=O)O)c(O)cc12	97	90	98	-51
Cc1ccc(-c2nc3nc(C)cc(=O)n3[nH]2)cc1	100	95	106	10
CCOC(=O)N1CCN(C(=O)CN(c2cccc(C(F)(F)F)c2)S(=O)(=O)c2ccccc2)CC1	·	·	100	-6
CCC1CCCCN1C(=O)COC(=O)CSc1cc(C)ccc1C (stereo not drawn)	103	79	·	-26
COc1ccccc1C(=O)n1nc(-c2ccco2)nc1NCc1ccc(Cl)cc1	103	85	103	-26
CC(=O)Nc1nonc1-c1nnc(SCC(=O)Nc2ccc(C)cc2C)n1C	98	86	96	-22
C=CCNc1nc(C(=O)OCC(=O)NCc2cccc(OC)c2)cs1	90	87	·	-28
COc1cc2c(cc1OC)C(C)N(C(C)=O)CC2 (stereo not drawn)	107	86	106	-6
O=C(O)C(Cc1c[nH]c2ccccc12)N1C(=O)C2C3c4ccccc4C(c4ccccc43)C2C1=O (stereo not drawn)	·	·	104	-13
Cc1nnc(-c2cc(-c3ccc(Cl)cc3)oc2C(F)(F)F)o1	105	102	98	-1
CCOC(=O)c1cccc(NC(=O)NCCc2c(C)nn(C)c2C)c1	84	84	102	·
O=C(O)Nc1cc(Cl)cc(Cl)c1	-0.4*	-0.7*	·	0
Next compounds follow:
SMILES	Sa growth inh	Sa growth inh second temp	GIV Gai3 FP	HCMV NEC inh
Cc1nn(Cc2ccccc2Cl)c(C)c1C(=O)NC1=NCCS1	108	99	·	-34
CCN(CC)c1ccc(C2C(C(N)=O)=C(C)Nc3nc(SCc4ccccc4Cl)nn32)cc1 (stereo not drawn)	96	97	121	-162
Cc1cc(C(=O)N2CCCC2c2ccccc2F)no1 (stereo not drawn)	·	·	106	-9
COc1ccc(CC(=O)NC2CCCCC2)cc1OC	87	107	·	-7
CCc1ccccc1NC(=O)c1sc2nc(C)cc(COC)c2c1N	104	104	101	·
CCOC(=O)c1oc2ccc(S(=O)(=O)Nc3ccc4[nH]c(=O)[nH]c4c3)cc2c1C	102	92	105	-14
Cc1nc(=O)c(-c2ccccc2)c(C)n1CCCCCC(=O)O	101	92	·	-1
CCc1nc(C)cn1S(=O)(=O)c1ccc2c(c1)N(C(C)=O)CC(C)O2 (stereo not drawn)	·	·	103	-8
COc1ccc(CNC(=O)C2CCN(S(=O)(=O)Cc3ccccc3)CC2)cc1	81	94	113	-5
CCc1ccc(NC(=O)Cn2c(=O)n(CCC(=O)NCCc3ccc(OC)c(OC)c3)c(=O)c3ccccc32)cc1	92	92	102	-11
COc1ccc2c(Cl)c(C(=O)Nc3ccc(C(N)=O)cc3)sc2c1	105	88	·	-40
CC(c1cc2ccccc2s1)N(O)C(N)=O (stereo not drawn)	87&98&82	82&97&90	104	-38&-44&-11&-37
O=C(NC1CCCC1)C1CCN(c2ccccc2)C1=O (stereo not drawn)	102	100	114	-9
O=C(CSC1=NCCS1)C12CC3CC(CC(C3)C1)C2	101	89	·	-5
O=C(CSc1nc(-c2cccs2)nc2cc(=O)[nH]n12)Nc1ccccc1F	102	84	91	·
COc1cccc2oc(-c3ccccc3)c(Br)c12	113	83	103	·
Cc1ccc(S(=O)(=O)C(C)C(=O)c2ccc3c(c2)OCCO3)cc1 (stereo not drawn)	90	96	113	-4
Cc1nc2c3ccccc3n(CC(=O)c3ccc(Br)cc3)c(=O)n2n1	93	98	98	·
Cc1ccc(-c2nc3c(cnn3-c3ccccc3)c(=O)n2-c2cccc(Cl)c2)cc1	87	81	105	6
CCCCNC(=O)CSc1nc2n[nH]c(C)c2c(=N)n1-c1cccc(C)c1	105	87	98	·
Cc1cccc(Nc2nc(NCc3ccco3)nc(N3CCOCC3)n2)c1	·	·	99	-10
COc1ccc(CNC(=O)C2CCCCN2S(=O)(=O)c2ccc(F)cc2)cc1 (stereo not drawn)	82	90	98	·
O=C(O)Cn1c(SCC(=O)c2ccc(Br)cc2)nc2ccsc2c1=O	88	76	101	2
CCOc1ccc(-c2cn3c(n2)sc2cc(C(=O)NC(C)C45CC6CC(CC(C6)C4)C5)ccc23)cc1 (stereo not drawn)	91	99	101	20
CCOC(=O)c1c(NC(=O)c2ccccc2F)sc(C(=O)Nc2cccc(C(F)(F)F)c2)c1C	·	·	109	5
Further compounds.
SMILES	Sa growth inh	Sa growth inh second temp	GIV Gai3 FP	HCMV NEC inh
CN(Cc1ccc(C(C)(C)C)cc1)C(=O)c1ccc(N(C)C)cc1	107	80	·	-4
CC(CNC(=O)Cn1c(-c2cccs2)cc2ccccc21)c1ccccc1 (stereo not drawn)	121	133	108	·
Cc1ccc(Cn2cccc2CNS(=O)(=O)c2c(C)noc2C)cc1	·	·	111	-20
Cc1ccc(C(=O)c2oc3ccccc3c2NC(=O)Cc2coc3c(C)c(C)ccc23)cc1	89	95	105	-1
Cc1noc2c1C(c1ccsc1)C1=C(CC(C)(C)CC1=O)N2 (stereo not drawn)	·	·	107	-3
CC(C)(C)OC(=O)NC1CCN(C(=O)CSCC(=O)O)CC1	101	96	101	9
COc1ccc2c(c1OC)C(=O)O[C@H]2[C@H]1c2c(cc3c(c2OC)OCO3)CCN1C	93	91	·	-9
CCC(C)(C(=O)NC1CCCCC1)N(C)C(=O)Cc1cccs1 (stereo not drawn)	99	79	97	·
COc1ccc2c(COc3cccc(F)c3)cc(=O)oc2c1	102	97	·	-14
COc1ccc(-c2nc3ccccn3c2Nc2ccc3c(c2)OCO3)cc1	82	84	103	-22
COc1ccc(-c2cn(-c3ccc(C)c(Cl)c3)c(=S)[nH]2)cc1OC	81	88	109	·
O=C(CSc1nnc(-c2ccccc2)n1CCN1CCOCC1)NC1CCCCC1	101	91	·	-2
Cc1ccc(NC(=O)CSc2cccc[n+]2[O-])c(Br)c1	114	90	·	-15
CCOC(=O)c1cc(S(=O)(=O)N2CCCC2C(=O)NCCC2=CCCCC2)cn1C (stereo not drawn)	·	·	103	-15
CCC(=O)Nc1cc(C(=O)NCc2ccc(C)cc2)ccc1S(=O)(=O)c1ccc(C)cc1	118	99	104	·
CCSc1nnc2c(n1)OC(c1cc(Br)ccc1OC)Nc1ccccc1-2 (stereo not drawn)	·	·	106	-4
Cc1ccc(C2c3c(n[nH]c3C)C(=O)N2c2ccc(Br)cc2)cc1 (stereo not drawn)	·	·	98	-16
Cc1ccc(Cn2cc(CO)c3ccccc32)cc1	106	84	103	·
O=C(OCc1nccn1Cc1ccc(Cl)cc1)c1ccccc1Cl	106	82	103	-18
CCOC(=O)c1ccccc1NC(=O)CSc1cn(CC(=O)N2CCCCCC2)c2ccccc12	133	98	106	·
O=C(c1cc(-c2cccnc2)n[nH]1)N1CCCC(C(=O)N2CCN(c3ccccc3)CC2)C1 (stereo not drawn)	·	·	106	-6
NC(=O)C1CCN(c2ncnc3nc[nH]c23)CC1	85	95	·	1
Nc1ncnc2c1ncn2[C@@H]1O[C@H](CO)[C@H](O)C1O (stereo partly drawn)	·	·	101	-23
CCCCn1nnnc1COC(=O)CCc1c[nH]c2ccccc12	74	87	·	-22
CCCCN(C)C(=O)c1ccc2c(c1)N(Cc1cccc(F)c1)C(=O)c1ccccc1S2	119	88	107	·

In another format: 2 of the compounds above.
| compound | Sa growth inh | Sa growth inh second temp | GIV Gai3 FP | HCMV NEC inh |
| --- | --- | --- | --- | --- |
| Cc1ccc(Cn2cc(CO)c3ccccc32)cc1 | 106 | 84 | 103 | · |
| O=C(CSc1nnc(-c2ccccc2)n1CCN1CCOCC1)NC1CCCCC1 | 101 | 91 | · | -2 |

Remaining list, next part:
SMILES	Sa growth inh	Sa growth inh second temp	GIV Gai3 FP	HCMV NEC inh
COc1ccc(C(=O)/C=C2/NCC(C)NC2=O)cc1 (stereo not drawn)	97	94	108	-80
COc1ccc(-c2nc(C)c(CCNC(=O)Cc3ccc(F)cc3)s2)cc1OC	81	84	105	·
CN(C)S(=O)(=O)N(CC(=O)Nc1ccc(C(F)(F)F)cc1)c1ccccc1	102	85	105	-38
Cc1nn(-c2ccccc2)c(Cl)c1/C=N/NC(=O)c1cccnc1	107	95	99	-29
O=C(Cc1ccccc1)c1ccc2c(c1)OCO2	106	91	·	-5
CCN(CC)C(=O)N1CCN(CCC#N)CC1	101	91	100	·
CN(CCc1noc(COc2ccccc2F)n1)S(=O)(=O)c1ccccc1F	·	·	101	-31
NC(=O)c1ccsc1NC(=O)COC(=O)c1ccccc1	92	90	·	-22
Cc1cc(N2CCN(C)CC2)nc2ccc(NC(=O)Nc3ccccc3Br)cc12	83	90	103&100	2
Cc1ccc(S(=O)(=O)NCC2CCC(C(=O)NCc3cccnc3)CC2)cc1 (stereo not drawn)	100	91	107	-36

Some of these compounds in order of SMILES length, low to high:
SMILES	Sa growth inh	Sa growth inh second temp	GIV Gai3 FP	HCMV NEC inh
O=C(O)Nc1cc(Cl)cc(Cl)c1	-0.4*	-0.7*	·	0
CC(c1cc2ccccc2s1)N(O)C(N)=O (stereo not drawn)	87&98&82	82&97&90	104	-38&-44&-11&-37
Cc1ccc(Cn2cc(CO)c3ccccc32)cc1	106	84	103	·
C(=C\c1ccccc1)/C=N/[n+]1ccccc1	103	82	·	1
Cc1ccc(F)c(NC(=O)C(F)(F)C(F)F)c1	78	102	103	-14
COc1ccc(C(=O)/C=C2/NCC(C)NC2=O)cc1 (stereo not drawn)	97	94	108	-80
Cc1ccc(-c2nc3nc(C)cc(=O)n3[nH]2)cc1	100	95	106	10
O=C(OCc1nccn1Cc1ccc(Cl)cc1)c1ccccc1Cl	106	82	103	-18
CCC(C)(C(=O)NC1CCCCC1)N(C)C(=O)Cc1cccs1 (stereo not drawn)	99	79	97	·
Cc1noc2c1C(c1ccsc1)C1=C(CC(C)(C)CC1=O)N2 (stereo not drawn)	·	·	107	-3
Cc1ccc(Cn2cccc2CNS(=O)(=O)c2c(C)noc2C)cc1	·	·	111	-20
Cc1nn(-c2ccccc2)c(Cl)c1/C=N/NC(=O)c1cccnc1	107	95	99	-29
COc1ccc2c(Cl)c(C(=O)Nc3ccc(C(N)=O)cc3)sc2c1	105	88	·	-40
Cc1ccc(S(=O)(=O)C(C)C(=O)c2ccc3c(c2)OCCO3)cc1 (stereo not drawn)	90	96	113	-4
COc1ccc(CNC(=O)C2CCN(S(=O)(=O)Cc3ccccc3)CC2)cc1	81	94	113	-5
CCc1nc(C)cn1S(=O)(=O)c1ccc2c(c1)N(C(C)=O)CC(C)O2 (stereo not drawn)	·	·	103	-8
Cc1noc(NS(=O)(=O)c2ccc(NC3OC(=O)c4ccccc43)cc2)c1C (stereo not drawn)	13	21	101	·
CN(C)S(=O)(=O)N(CC(=O)Nc1ccc(C(F)(F)F)cc1)c1ccccc1	102	85	105	-38
CCCOc1ccc(C2C3CN(CC)CC=C3C(C#N)=C(N)C2(C#N)C#N)cc1OC (stereo not drawn)	89	65	114	-24
CCOC(=O)c1ccccc1NC(=O)CSc1cn(CC(=O)N2CCCCCC2)c2ccccc12	133	98	106	·
Cc1ccc(C(=O)c2oc3ccccc3c2NC(=O)Cc2coc3c(C)c(C)ccc23)cc1	89	95	105	-1
CCC(=O)Nc1cc(C(=O)NCc2ccc(C)cc2)ccc1S(=O)(=O)c1ccc(C)cc1	118	99	104	·
COc1ccc2c(c1OC)C(=O)O[C@H]2[C@H]1c2c(cc3c(c2OC)OCO3)CCN1C	93	91	·	-9
COc1cccc(N2CCN(C(=O)CCS(=O)(=O)c3ccc4c(c3)CC(=O)N4C)CC2)c1	87	90	99&105	6
O=C(c1cc(-c2cccnc2)n[nH]1)N1CCCC(C(=O)N2CCN(c3ccccc3)CC2)C1 (stereo not drawn)	·	·	106	-6
CCOc1ccc(-c2cn3c(n2)sc2cc(C(=O)NC(C)C45CC6CC(CC(C6)C4)C5)ccc23)cc1 (stereo not drawn)	91	99	101	20
CCc1ccc(NC(=O)Cn2c(=O)n(CCC(=O)NCCc3ccc(OC)c(OC)c3)c(=O)c3ccccc32)cc1	92	92	102	-11
